Mtb growth: M. tuberculosis H37Rv growth inhibitors, H37Rv strain (AID 1626) | inhibition, % at 10 µM, or IC50 in µM where a hit was titrated | hit rate 0.95% among 220,000 | M. tuberculosis H37Rv growth inhibition; higher % means a stronger effect;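 active = confirmed in a dose series; inconclusive = inhibition above 80% but not taken into the dose series; inactive = below 80% or under 30% at every dose of the series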;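 note: bacteria incubated seven days before Alamar blue readout; 0% = bacteria only wells and 100% = bacteria with antibiotic wells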
YopH PTP inh: YopH (Yersinia) phosphatase inhibition | fluorescence Ex485/Em525 | inhibition, %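 (about 10 µM by stock and volumes)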 | hit rate 0.16% among 140,000;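 active = inhibition of 50% or more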;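 note: controls were vehicle for no effect and minimum signal wells for full effect; inactives centre near -20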
Mtb betalactam: beta-lactam sensitization of Mtb H37Rv; M. tuberculosis H37Rv growth with meropenem, percent inhibition; hits of this screen are not shown here; inhibition, % at 25 µM; hit rate 0.27% among 330,000; AID 434955;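 active = about 74% or more and at least 40 points above the plate without the antibiotic, then above 30% in a dose series; inconclusive = first-round hits that could not be retested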;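 note: growth measured after seven days incubation then overnight dye step; 0% = bacteria only wells and 100% = bacteria with antibiotic; twin plates without the antibiotic show which effects depend on it; some results filed as inactive read as strong as hits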
RecA intein inh: inhibitors of M. tuberculosis RecA intein splicing; inhibition, %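 (about 9 µM by stock and volumes)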; hit rate 0.75% among 290,000; cell-free RecA intein splicing, fluorescence; AID 2221; P9WHJ3; in the data active = inhibition above about 30%; inconclusive = no clear call, values can overlap the other calls;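 note: 0% = vehicle wells and 100% = reference inhibitor control wells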
Target sequence (P9WHJ3 whole entry, looked up): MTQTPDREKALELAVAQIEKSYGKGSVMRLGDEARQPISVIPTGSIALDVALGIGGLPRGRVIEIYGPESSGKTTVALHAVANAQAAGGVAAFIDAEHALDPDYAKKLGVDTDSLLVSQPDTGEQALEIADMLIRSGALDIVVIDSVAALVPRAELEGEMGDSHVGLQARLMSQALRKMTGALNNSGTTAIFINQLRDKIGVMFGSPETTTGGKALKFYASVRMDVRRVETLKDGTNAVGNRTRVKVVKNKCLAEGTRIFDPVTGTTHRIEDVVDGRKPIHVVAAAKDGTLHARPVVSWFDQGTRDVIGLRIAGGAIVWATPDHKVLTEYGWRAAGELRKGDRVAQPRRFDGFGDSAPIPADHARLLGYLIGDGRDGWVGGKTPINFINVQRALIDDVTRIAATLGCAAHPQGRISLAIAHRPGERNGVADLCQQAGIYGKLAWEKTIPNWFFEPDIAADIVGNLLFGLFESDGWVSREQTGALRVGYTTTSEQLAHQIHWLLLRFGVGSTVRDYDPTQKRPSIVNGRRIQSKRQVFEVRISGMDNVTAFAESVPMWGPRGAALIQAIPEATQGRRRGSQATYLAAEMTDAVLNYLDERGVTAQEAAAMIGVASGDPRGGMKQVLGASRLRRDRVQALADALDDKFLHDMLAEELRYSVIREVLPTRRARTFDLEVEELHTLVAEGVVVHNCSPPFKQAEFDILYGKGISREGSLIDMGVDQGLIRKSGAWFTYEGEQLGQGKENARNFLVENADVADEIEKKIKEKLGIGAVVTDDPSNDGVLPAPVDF
Arbovirus anti: arbovirus infection inhibition; hit rate 0.37% among 200,000; arbovirus infection cell-based antiviral screen; inhibition, % at 10 µM;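 active = inhibition from about 30%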;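 note: bluetongue infection of BSR cells; cell survival read as ATP light after 72 h; 0% = infected wells without compound and 100% = uninfected wells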
Arbovirus anti repeat: second read-out of Arbovirus anti, no call of its own (marks repeat the call); inhibition, %; measured here: 10K subset replicate screen; many hits read low in the repeat;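 first of two repeat runs on a subset; 0% = infected and 100% = uninfected wells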
The depositor's hits bear a star; u = inconclusive; x = not tested or not shown. Only part of the results is shown. The share of hits here may be higher or lower than overall.

SMILES	Mtb growth	YopH PTP inh	Mtb betalactam	RecA intein inh	Arbovirus anti	others
O=C(NCCc1ccccc1)c1ccc2nccnc2c1	-1%	x	1	7.5	1
COc1cc2c(cc1OC)-c1nnc(C)n1C1(CCCC1)C2	-1%	-36	7	0.8	0	Arbovirus anti repeat=5
O=C(N/N=C/c1ccc2c(c1)OCO2)c1ccc(COCC(F)(F)C(F)F)cc1	x	x	64	0.5	x
COc1ccc(Cc2nc3ccc(C(=O)NC(C)c4cn(C)nc4C)cc3o2)cc1 (centres undefined)	x	x	4	-4.1	x
Cc1cnc(NCCc2ccccc2)s1	x	x	2	-0.2	x
Cc1cccc(C(=O)Nc2sc3c(c2C(=O)O)CCC3)c1	-6%	x	10	5.6	x
Cc1nccn1CC(O)COc1ccccc1 (centres undefined)	3%	28	-12	-1.6	-8
CC(C(=O)NC1=NCCS1)N1C(=O)C2CC=CCC2C1=O (centres undefined)	x	-46	-5	-0.6	4
Cc1cc(-c2n[nH]c(=S)n2/N=C/c2cccs2)n[nH]1	-7%	-39	5	-0.3	-3
CC(C)OC(=O)Nc1ccc2c(c1)N(C(=O)CCN(C)C)c1ccccc1CC2	x	x	-6	-0.5	x
CCOc1cccc(C(=O)Nc2cccc(-c3nc4ncccc4o3)c2C)c1	6%	-124	49	1.3	-1
O=C(CSc1n[nH]c(=O)n1-c1ccccc1)N1CCOCC1	x	x	0	-1.3	x
CCOP(=O)(c1ccc(N(C)C)cc1)C(O)c1cc(OC)c(OC)c(OC)c1 (centres undefined)	8%	3	10	-5.8	-5
CC(=O)c1cccc(NC2c3ccccc3C(=O)N2Cc2ccc3c(c2)OCO3)c1 (centres undefined)	4%	-10	-8	-1.8	-1	Arbovirus anti repeat=1
CC(C)N1C(=O)S/C(=C\c2ccc(-c3ccc(Cl)c(C(=O)O)c3)o2)C1=O	x	x	2	-0.4	x
CN(C)c1ncc(/C=C2/C(=O)NC(=S)N(C3CCCCC3)C2=O)cn1	4%	x	x	x	3
CCc1onc(C)c1C(=O)O	5%	x	0	-1.0	4
CCn1c(SCC(=O)N2c3ccccc3CCc3ccccc32)nc2c1c(=O)n(C)c(=O)n2C	-2%	-30	-10	1.0	x
CCOC(=O)C1CCN(C/C=C/c2ccccc2)CC1	x	x	-9	-1.8	x
CCC(C)Oc1ccc(/C=C/c2[nH]c(=O)[nH]c(=O)c2[N+](=O)[O-])cc1OC (centres undefined)	-4%	x	10	2.0	11
CCN(CC)CCCNC(=O)/C(=C\c1cccn1C)NC(=O)c1cccs1	-1%	-14	-3	-0.5	2
COc1ccccc1N1C(=O)c2ccc(C(=O)Nc3nccs3)cc2C1=O	-1%	x	-2	-0.8	5
CCNC(=O)C(=O)Nc1ccc([N+](=O)[O-])cc1	-1%	x	-8	0.1	15
CC(C)NCC(O)COc1ccc(Br)cc1 (centres undefined)	7%	x	-10	-1.0	6
O=C(COC(=O)c1ccncc1)Nc1ccccc1	4%	x	12	-2.2	-2
O=C(CSC(=S)N1CCCCC1)c1ccccc1	13%	x	-1	-0.4	-8
O=C(Nc1ccccc1N1CCN(C(=O)c2ccccc2)CC1)c1ccccc1Cl	8%	x	-6	1.4	x
Cn1cc(C(=O)NC2C3CC4CC(C3)CC2C4)cn1 (centres undefined)	-1%	-29	6	-6.2	-1
Cc1cc(C)n(CCNC(=O)c2cc(COc3ccc(F)cc3Cl)on2)n1	8%	x	-2	3.8	-2
CC(Oc1ccc(F)cc1)C(=O)Nc1cc(S(=O)(=O)N2CCOCC2)ccc1N1CCN(C)CC1 (centres undefined)	x	x	-3	6.8	x
Cc1ccc(NC2CCCN(C(=O)c3snnc3C)C2)cc1C (centres undefined)	x	x	7	-0.5	x
Cc1onc(-c2c(F)cccc2Cl)c1C(=O)NCCN1CCNC1=O	-8%	x	-5	-0.9	x
COc1ccc(C(=O)NCc2ccccn2)cc1[N+](=O)[O-]	3%	x	-2	-1.6	-6
COc1ccc(C(=O)N2CCN(C(=O)c3ccco3)CC2)cc1OC	-1%	-33	4	1.7	3
CCCOCCc1nnc(N)s1	2%	x	3	-1.3	x
COc1ccc(OCC(=O)N2CCN(C(=O)c3cccc4ccccc34)CC2)cc1	-2%	19	-12	-1.3	-4
Cc1cc(C)n2nc(-c3ccccc3)cc2n1	-9%	x	-9	2.3	-7
O=C(NCCCn1ccnc1)c1ccc(NS(=O)(=O)c2ccc(Cl)c(Cl)c2)cc1	x	x	-4	2.3	x
O=C(Nc1ccc(CN2CCCCC2)cc1)c1sc2ccccc2c1Cl	27%	x	-5	0.1	x
O=C1CC(N(CCc2ccccc2)C(=S)Nc2cc(Cl)ccc2Cl)C(=O)N1c1c(Cl)cccc1Cl (centres undefined)	18%	1	-2	0.4	-11

An excerpt from above in order of molecular weight, high to low.
SMILES	Mtb growth	YopH PTP inh	Mtb betalactam	RecA intein inh	Arbovirus anti	others
O=C(NCCCn1ccnc1)c1ccc(NS(=O)(=O)c2ccc(Cl)c(Cl)c2)cc1	x	x	-4	2.3	x
COc1ccc(OCC(=O)N2CCN(C(=O)c3cccc4ccccc34)CC2)cc1	-2%	19	-12	-1.3	-4
Cc1cc(C)n(CCNC(=O)c2cc(COc3ccc(F)cc3Cl)on2)n1	8%	x	-2	3.8	-2
O=C(Nc1ccc(CN2CCCCC2)cc1)c1sc2ccccc2c1Cl	27%	x	-5	0.1	x
O=C(CSC(=S)N1CCCCC1)c1ccccc1	13%	x	-1	-0.4	-8
Cn1cc(C(=O)NC2C3CC4CC(C3)CC2C4)cn1 (centres undefined)	-1%	-29	6	-6.2	-1
CCCOCCc1nnc(N)s1	2%	x	3	-1.3	x

Continued.
SMILES	Mtb growth	YopH PTP inh	Mtb betalactam	RecA intein inh	Arbovirus anti	others
CCn1cc(C(=O)NCCc2ccccc2C)c(=O)c2ccc(C)nc21	x	x	-1	0.4	x
O=c1[nH]c(=S)c2c(n1-c1ccccc1)CCC2	1%	2	-3	2.6	-4
Nc1c(C(=O)N/N=C/c2ccc(F)cc2)oc2nc(-c3ccccc3)cc(-c3ccco3)c12	-2%	x	-1	-16	x
O=c1c2ccccc2nnn1CSc1nnc(-c2ccc3c(c2)OCO3)o1	-2%	-24	-8	-5.0	-3
Cc1cc(=O)c2n(Cc3ccccc3Cl)nc[n+]2[nH]1	2%	-5	2	-2.3	1
O=[N+]([O-])c1cc(N=Nc2ccc3ccccc3c2)ccc1O	x	x	7	3.3	x
CN(CC(=O)Nc1ccccc1Cl)C(=O)COC(=O)c1cc(S(=O)(=O)N(C)C)ccc1N1CCCC1	x	x	-19	3.7	x
Cc1ccc2c(c1)cc(CN(C(=O)N1CCOCC1)C1CCCC1)c1nnnn12	-1%	x	-4	-1.2	-2
COc1ccc(C(=O)NC(=S)Nc2cc(C)ccn2)cc1[N+](=O)[O-]	1%	-18	-5	-0.1	2
CC(=O)N1c2ccccc2C(C)CC12CCCCC2 (centres undefined)	0%	-23	0	1.4	2
Cc1cccc(NC(=O)c2ccc(COc3ccc4ccccc4c3)o2)n1	22%	x	13	2.1	1
COC(=O)C1=C(C)NC(=O)/C1=C\N(C)C	4%	x	-1	-4.2	4
Cc1cnc(NC(=O)c2cccc(S(=O)(=O)N3CC(C)OC(C)C3)c2)s1 (centres undefined)	7%	x	-2	-2.8	9
Fc1ccc(Nc2nc(N3CCOCC3)nc(N3CCOCC3)n2)cc1	x	x	-1	-3.0	x
CC(=O)/C(=N\Nc1ccc(C)cc1)Sc1nncn1C	u	6	-1	-0.8	-32
COC(=O)c1scc(C)c1NC(=O)CC1NCCNC1=O (centres undefined)	-6%	x	-1	-1.0	x
COc1ccc(S(=O)(=O)NCc2cccnc2)cc1C(=O)N1CCCCC1	x	x	-9	4.7	x
Cc1ccc(CN(CC(=O)NCC2CCCO2)S(=O)(=O)c2ccc(C)cc2)cc1 (centres undefined)	x	x	5	2.2	x
O=C(OCC(=O)c1ccc([N+](=O)[O-])cc1)/C(=C\c1ccc(Cl)cc1)NC(=O)c1ccccc1	0%	-19	72	-0.7	-1
COc1ccc(NS(=O)(=O)c2cccc(C(=O)NNC(=O)CN3C(=O)NC(C)(C)C3=O)c2)cc1	x	x	-1	-2.9	x

Retrieved one by one from above:
SMILES	Mtb growth	YopH PTP inh	Mtb betalactam	RecA intein inh	Arbovirus anti	others
CC(=O)N1c2ccccc2C(C)CC12CCCCC2 (centres undefined)	0%	-23	0	1.4	2
O=c1c2ccccc2nnn1CSc1nnc(-c2ccc3c(c2)OCO3)o1	-2%	-24	-8	-5.0	-3

(list continues)
SMILES	Mtb growth	YopH PTP inh	Mtb betalactam	RecA intein inh	Arbovirus anti	others
CN(C)C(=O)NC1c2ccccc2-c2ccccc21	x	x	2	-0.2	x
CCN(CC(=O)Nc1cc(Cl)ccc1C)C(=O)CN1C(=O)NC(CC)(c2ccccc2)C1=O (centres undefined)	x	x	-14	1.2	x
COc1ccc(S(=O)(=O)NCC(=O)NCCc2ccc(OC)c(OC)c2)cc1	x	x	-10	0.1	x
CCOc1ccccc1NC(=O)CCCc1ccc(OC)c(C)c1	x	x	60	2.9	x
CC(=O)Nc1ccc(C(=O)NCCCSc2ccccc2)cc1	x	x	-10	4.9	x
CCOc1cc(S(=O)(=O)N2CCOCC2)ccc1F	-1%	25	-5	2.1	-2
COc1ccc(-c2cc(C(=O)N/N=C/c3cccnc3)c3cc(C)cc(C)c3n2)cc1	x	x	29	-7.9	x
CC12CCC(=O)N1C(C(=O)OCC(=O)Nc1cccc(Br)c1)CS2 (centres undefined)	-3%	x	1	2.4	11
O=C(CSCC(=O)Nc1cccc([N+](=O)[O-])c1)Nc1ccccc1	2%	-19	-7	-0.1	4
CCCCOc1ccc(-c2nc(=S)[nH][nH]2)cc1	-2%	-2	1	0.1	-16
CC1CCCCN1C(=O)COc1ccc(NC(=O)c2ccco2)cc1 (centres undefined)	-11%	-8	-3	-0.7	4
COc1ccccc1S(=O)Cc1ccc(C(=O)NCc2ccccc2Cl)o1 (centres undefined)	-6%	-34	2	x	-3	Arbovirus anti repeat=-1
N#Cc1ccc(C(=O)N/N=C/c2cn(CC(=O)O)c3ccccc23)c(F)c1	-3%	-21	3	-0.3	2
CN(C)CC(=O)c1ccc(-c2ccccc2)cc1	-20%	-35	0	1.6	0
Cc1n[nH]c(=O)nc1N1CCc2ccccc2C1	-1%	-15	-2	0.7	9
O=C(Cn1c(=O)oc2ccccc21)Nc1ccc(F)cc1	x	x	-11	0.6	x
CCn1cc(C(=O)N[C@@H](CCSC)C(=O)NCCCn2ccnc2)c(=O)c2cc3c(cc21)OCO3	x	x	2	-0.3	x
CS(=O)(=O)Nc1ccc(C2=NN(S(C)(=O)=O)C(c3cccs3)C2)cc1 (centres undefined)	8%	x	-4	3.0	6
COc1ccc(-n2nc(C(=O)NCC(=O)N3CCN(c4ccccc4F)CC3)c3ccccc3c2=O)cc1OC	x	x	-2	-0.1	x
COc1ccc(N(CC(=O)Nc2c(C)cccc2C)S(=O)(=O)c2ccccc2[N+](=O)[O-])c(OC)c1	-2%	x	3	-2.4	-9
CC(Cc1ccco1)NC(=O)c1cccc(S(=O)(=O)N(C)C)c1 (centres undefined)	x	x	-2	1.2	x
CCOc1ccc(NC(=S)NNC(=O)c2ccc(Br)cc2)cc1	73%	x	0	0.3	15
O=C(c1cccs1)N(Cc1cc2ccccc2[nH]c1=O)c1ccccc1	5%	-14	0	3.0	6
CCn1c(=O)c(C(=O)Nc2nc3ccccc3[nH]2)c(O)c2ccccc21	0.39µM*	-53	100	-5.2	0
Cc1ccc(-c2nc(-c3ccccn3)no2)cc1Cl	x	-29	78	0.9	8
O=C(/C=C/c1ccc2c(c1)OCO2)c1ccccn1	-6%	x	-8	5.3	x
COc1cc(OC)cc(C(=O)NC2CCCCCCC2)c1	x	x	-6	-1.9	x
COc1ccc(CCNC(=O)CSc2nc3c(c(=O)n(C)c(=O)n3C)n2C(C)C)cc1OC	-8%	-34	0	-2.1	-1
O=C(CSC1=NCCS1)NC(NC(=O)CSC1=NCCS1)c1ccccc1	3%	x	2	2.7	7
c1cc2nnnn2nc1N1CCCCCC1	-2%	-18	-2	-1.2	1
COc1ccc(C2CC(c3ccc(C)cc3)=NN2C(=O)CCC(=O)O)cc1OC (centres undefined)	x	x	-3	-2.6	x
CC(C)CNC(=O)c1cc(S(=O)(=O)N2CCOCC2)ccc1N1CCCC1	x	x	-3	0.1	x
COc1ccc(C(CNC(=O)c2ccc(NS(=O)(=O)c3ccc4c(c3)OCCO4)cc2)N(C)C)cc1 (centres undefined)	x	x	-4	-1.8	x
COc1ccc(N2CCN(C(CNC(=O)C(=O)NCc3cccs3)c3ccco3)CC2)cc1 (centres undefined)	3%	x	-5	-1.8	12
O=S(=O)(Nc1nc2ccccc2nc1N1CCN(c2ccccc2)CC1)c1ccc(F)cc1	-3%	-11	-10	1.7	9
CCCCCCCn1ccc(O)c(CC(=O)OC)c1=O	-2%	x	0	-5.3	10
